Source: PubChem (several laboratories)
T cruzi inh = T. cruzi replication inhibition | AID 1885 | hit rate 1.4% among 300,000 | inhibition, % (test concentration not listed) | T. cruzi beta-gal in NIH3T3, luminescence, 90 h;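 active means mean inhibition across valid replicates above about 55%, limit read from the data; inconclusive means mean below that limit but half or more replicates reach it; inactive means mean below it, under half of replicates reach it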;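 further: signal also drops with host cell toxicity which is not excluded here; 0% = plate median of DMSO wells and 100% = zero luminescence signal; higher percent means less beta-gal luminescence so fewer parasites; stock transfer was 50 nL into about 50 µL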
A1 inh = inhibitors of the anti-apoptotic protein A1, read as caspase activation; MEF A1-2A-BIM cells, Caspase-Glo 3/7 luminescence, 3 h; percent of clofoctol response, vehicle zero; caspase activation, % (test concentration not listed); hit rate 0.066% among 330,000;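 active means over half of replicate activation scores above 10%, or exactly half above 10 with the replicate mean above 10; inconclusive means replicate mean below 10 yet half the replicates above 10; inactive means over half of replicates below 10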;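 further: wells of about 30 µL received 50 nL stock; many hits fall short of the cut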
UCH37 inh = human UCH37 deubiquitinating enzyme inhibition; Q9Y5K5; purified proteasome/UCH37, Ub-AMC cleavage fluorescence; inhibition, % (no concentration beside the values); hit rate 0.33% among 330,000; AID 588478;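 active means mean of two replicates above 20%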;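 further: 0% = compound-free wells with enzyme and 100% = wells lacking proteasome; stock transfer was 100 nL into about 20 µL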
Target sequence (Q9Y5K5 whole entry, looked up): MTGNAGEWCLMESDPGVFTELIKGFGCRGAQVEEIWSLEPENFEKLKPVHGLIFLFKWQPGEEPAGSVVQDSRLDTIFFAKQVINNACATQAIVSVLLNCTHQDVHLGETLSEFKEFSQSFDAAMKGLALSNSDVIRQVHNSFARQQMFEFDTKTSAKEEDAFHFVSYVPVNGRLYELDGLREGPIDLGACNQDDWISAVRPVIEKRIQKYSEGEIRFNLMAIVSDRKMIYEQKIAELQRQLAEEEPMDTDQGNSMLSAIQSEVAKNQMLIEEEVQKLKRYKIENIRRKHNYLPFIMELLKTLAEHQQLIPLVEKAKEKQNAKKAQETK
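Assay system: Proteasome-bound UCH37. Buffer or medium: pH 7.4 Tris-HCl (50 mM) with ovalbumin, ATP-MgCl2, DTT. Incubation: 30 min preincubation with enzyme, 25 min cleavage at room temperature. Measured by: fluorescence, ex 355 nm, em 460 nm. Read-out basis: percent inhibition. Control set: wells without proteasome as full block, compound-free enzyme plus substrate as uninhibited.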
Beta apoptosis = blocks beta cell apoptosis. AID 435005. hit rate 0.8% among 300,000. INS-1E cytokine-induced death, ATP luminescence, 48 h; percent of positive-control rescue, neutral wells zero. protection from apoptosis, % (test concentration not listed);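 active means all replicates at 75% or more, or half of them and the mean; inconclusive means half reach 75% but not the mean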;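 further: 0% = cytokine-treated negative control wells and 100% = positive control rescue; higher means more ATP so stronger rescue from cytokine killing; wells of about 40 µL received 100 nL stock; the first replicate is given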
Calb FLC = C. albicans growth modulation with fluconazole; C. albicans CaCi-2 (fluconazole-resistant clinical isolate) + fluconazole, Alamar Blue growth, 48 h; growth inhibition, % (concentration not given with the values); hit rate 0.57% among 300,000;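 active means most replicates above 75%; inconclusive means exactly half above 75%; inactive means most below 75%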;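 further: all wells also contain fluconazole at 8 µg/ml as a sub-toxic cotreatment; 0% = median of DMSO wells and 100% = median of geldanamycin control wells; wells of about 8 µL received 7.5 nL stock; the first replicate is given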
RanGTP-Imp inh = disruptors of Ran-importin-beta complex formation – biochemical, FRET, CFP-Ran, YFP-importin-beta, homogeneous, primary screen. cell-free CFP-Ran/YFP-importin-beta FRET ratio. inhibition, % (test concentration not listed). hit rate 1.1% among 300,000. AID 2216;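 active means most replicates above 15%; inconclusive means exactly half above 15%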;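 further: 0% = DMSO wells and 100% = Ran loaded with GDP instead of GTP; wells of about 40 µL received 100 nL stock; the first replicate is given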
LANA-H2B inh = blocks KSHV LANA binding to histone H2A/H2B. Q9QR71. cell-free LANA-H2A/H2B peptide, fluorescence polarization. inhibition, % (concentration not given with the values). hit rate 0.6% among 320,000; in the data active means inhibition mostly above about 10%, no sharp cut-off; inactive means mostly below about 6.7%;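 further: stock transfer was 7.5 nL into about 10 µL; 0% = median of vehicle wells and 100% = median of positive control wells; one replicate is shown; the record names a cut of 25% in any replicate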
Beta2AR agonist = agonists of human beta-2 adrenergic receptor inducing internalization | P07550 | Am2.2-beta2AR cells, FAP receptor internalization, flow cytometry; reference of the scale not given here | response, % (concentration not given with the values) | hit rate 0.43% among 340,000 | AID 504454;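 active means response above a set limit, near 3 SD of response in nonfluorescent compounds, cut at about 42% in these data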;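 further: stock transfer was 100 nL into about 11 µL; a reference agonist was the positive control; negative values mostly stem from fluorescent compounds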
Target sequence (P07550 whole entry, looked up): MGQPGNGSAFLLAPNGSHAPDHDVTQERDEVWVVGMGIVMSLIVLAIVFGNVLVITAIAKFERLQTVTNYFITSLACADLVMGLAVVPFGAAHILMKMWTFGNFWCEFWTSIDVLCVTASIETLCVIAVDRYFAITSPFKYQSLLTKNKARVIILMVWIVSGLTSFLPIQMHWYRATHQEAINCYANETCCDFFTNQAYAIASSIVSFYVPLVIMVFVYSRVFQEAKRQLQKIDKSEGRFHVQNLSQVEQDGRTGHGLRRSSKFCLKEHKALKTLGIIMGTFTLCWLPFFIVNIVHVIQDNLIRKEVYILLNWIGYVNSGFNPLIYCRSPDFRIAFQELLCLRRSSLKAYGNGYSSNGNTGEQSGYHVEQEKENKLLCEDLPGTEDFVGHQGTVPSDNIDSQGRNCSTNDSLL
Numbers without * were called inactive; i = inactive; ? = inconclusive; nt = no result given.

Compound,T cruzi inh,A1 inh,UCH37 inh,Beta apoptosis,Calb FLC,RanGTP-Imp inh,LANA-H2B inh,Beta2AR agonist
CC(C)c1ccc(N(CC(=O)NCC2CCCO2)C(=O)Cn2nnc(-c3cccs3)n2)cc1 (stereo not given),-5,0.0,1.8,-6,2,3.5,0.2,-6
COc1ccc(S(=O)(=O)Nc2ccc(S(=O)(=O)N3CCOCC3)cc2)cc1,-1,0.2,-0.2,-3,19,0.0,0.2,6
O=S(=O)(c1cccs1)N1CCC2(CC1)OCCO2,-11,1.3,-2.5,-3,5,0.3,-1.0,5
COc1ccc(-c2csc(NC(=O)c3ccc(N4C(=O)CCC4=O)cc3)n2)cc1,-18,-0.5,-34,-2,-5,4.9,-3.6,-10
COC(=O)C1CCN(c2cc(=O)n(C3CCCCC3)c(=O)[nH]2)CC1,-20,0.2,1.5,-1,-4,63*,-2.4,-3
COc1ccc(Cn2c(=O)[nH]c3cc(C(=O)NCCCOC(C)C)ccc3c2=O)cc1,5,-0.1,-3.9,2,-10,0.1,-3.4,0
Cc1occc1C(=O)Nc1cccc(Cl)c1Cl,-6,-2.2,-0.1,-4,-11,3.5,0.9,0
Cc1ccc(N=C(NOC(=O)c2ccccc2)c2nonc2N)c(C)c1,-14,0.6,8.1,-7,0,0.2,-4.9,3
CC(NC(=O)c1ccc(Br)o1)c1ccccc1 (stereo not given),-16,0.8,3.4,0,-4,-2.5,-0.1,-1
CCOc1ccc(NC(=O)c2cc(S(=O)(=O)N3CCOCC3)cn2C)cc1,10,-0.5,1.7,-1,-10,0.5,-11,0
COc1ccc(S(=O)(=O)NC2CCCC2)cc1NC(C)=O,-6,0.8,4.7,2,-1,?,-2.8,-6
O=C(c1cccc2ccccc12)C1CCCN(C(=O)C2CCOCC2)C1 (stereo not given),8,2.0,0.4,-1,0,2.5,-5.8,4
CSc1nc2ccc(NC(=O)c3c(F)cccc3F)cc2s1,3,0.3,1.0,-6,-5,-0.4,-2.7,10
c1ccc2c(c1)nc(N1CCOCC1)c1nncn12,-14,-1.0,4.1,-10,10,-0.5,0.6,-2
CCOC(=O)c1c(NC(=O)CSc2nnnn2-c2ccc3c(c2)OCCO3)sc(C)c1C,-16,0.6,2.3,-7,7,2.1,-3.4,9
CCN1C(=O)N[C@@H](c2ccccc2)[C@H](C(=O)OC)[C@H]1C,-16,0.0,6.0,-2,24,-0.5,4.8,-2
O=C(NN1CCCCC1)c1ccccc1,-7,0.6,-0.8,-8,33,3.5,6.9,1
C/C(=N\NC(=O)CCCC(=O)O)c1c(-c2ccccc2)c2cc(Cl)ccc2[nH]c1=O,5,1.8,nt,6,-7,?,-0.4,-1
O=C(NNC(=O)c1cc(-c2ccncc2)nc2ccccc12)Nc1ccc(F)cc1,-15,-0.5,0.4,2,-8,-3.3,-1.8,8
Cc1nnc2ccc(-c3cccc(NS(C)(=O)=O)c3)nn12,-8,-0.4,2.5,-3,-8,1.3,0.6,1
CCN(CC)S(=O)(=O)c1ccc2oc(C(=O)NCC3COc4ccccc4O3)c(C)c2c1 (stereo not given),41,1.9,-0.4,nt,11,4.6,-4.8,8
Cc1ccc(S(=O)(=O)c2ccc(Cl)cc2)cc1S(=O)(=O)NC(C(=O)O)C(C)C (stereo not given),-8,1.0,1.8,-10,-3,2.7,-4.1,-6
CCN1C(=S)N[C@@H](c2ccccc2)C(C(=O)OC)=C1C,-48,-0.1,1.3,1,-2,2.3,-2.2,-7
O=C(CN1C(=O)NC2(CCCCC2)C1=O)Nc1ccc2c(c1)CCC2,8,0.2,1.4,0,33,-5.3,1.1,-10
CCOC(=O)c1c(C)[nH]c(C)c1C(=O)COC(=O)c1cccnc1Cl,nt,0.1,2.2,-1,nt,nt,0.1,-5
Cc1ccc(C)c(N2CC(C(=O)Nc3nccs3)CC2=O)c1 (stereo not given),-6,0.8,0.9,-3,2,3.6,-0.9,-6
NC(=O)c1cc(-c2csc(-c3cccnc3)n2)ccc1O,2,-0.8,-1.7,-3,13,-2.5,1.4,13
O=C(COC(=O)c1cccc(C(=O)OCC(=O)c2ccc(Br)cc2)n1)c1ccc(Br)cc1,1,-0.7,1.5,0,-1,2.6,1.3,4
Cc1ccsc1/C=N/N=C1\C(=O)Nc2ccccc21,3,-0.5,nt,0,4,1.3,0.9,-10
CN(C)c1ccc(NS(=O)(=O)c2cccc(Cl)c2)cc1,16,-1.5,2.0,8,-14,3.5,5.5,6
CC(Oc1ccc2c3c(c(=O)oc2c1)CCC3)C(=O)NCCN1CCOCC1 (stereo not given),-13,-1.2,-21,3,2,2.9,2.2,-4
O=C(c1sc2ccccc2c1Cl)N1CCN(c2ccccn2)CC1,14,-0.2,2.0,3,3,2.2,-1.5,-3
Cc1ccn2c(Nc3ccccc3C)c(-c3ccncc3)nc2c1,61*,0.7,-20,-46,29,2.6,nt,0
COc1cc2c(cc1OC)C(c1ccccc1)NC(C)(C)C2 (stereo not given),-10,0.0,3.2,0,-11,-1.4,3.5,-1
Cc1cc2c(cc1C)NC(c1ccccn1)C1=C(CC(C)(C)CC1=O)N2 (stereo not given),3,0.6,3.7,1,-3,-3.1,-0.4,2
Cc1ccc(NC(=O)COC(=O)c2ccc(NC(=O)CC#N)cc2)cc1S(=O)(=O)N1CCOCC1,nt,-0.2,2.7,-1,nt,nt,-5.7,-1
COc1ccc(COc2ccccc2C(=O)NCc2ccccc2)cc1F,19,0.0,1.5,nt,-15,-5.8,-6.4,-1
O=C(Nc1ccc(Cc2ccncc2)cc1)C1CCC(N2C(=O)C3C4C=CC(C4)C3C2=O)CC1 (stereo not given),17,0.0,0.8,4,8,-0.8,3.2,-20
COC(=O)c1cnn(-c2ccccc2)c1N,11,nt,-0.3,nt,4,4.6,nt,-3
COc1ccccc1-c1c(C#N)c(N)nc2c1CCc1ccccc1-2,44,1.0,i,nt,19,20*,-4.0,10
COC(=O)CCn1c(C)cc(C(=O)COc2ccccc2C(N)=O)c1C,-29,0.0,5.1,7,28,3.6,-1.4,7
COc1ccc(-c2cc(C(=O)O)c(C)o2)cc1OC,-17,-7.2,3.1,4,5,1.3,2.7,0
CCN(CC)S(=O)(=O)c1ccc(N2CCN(c3ccccc3OC)CC2)c(N)c1,12,-0.1,0.9,126*,11,-2.9,-1.1,5
CCC1CCCCN1CCCNC(=O)c1ccc(/C=C2/Sc3ccccc3NC2=O)cc1 (stereo not given),-13,0.7,-7.7,29,4,-0.3,0.1,44*
COC(=O)/C=C/C(=O)N1CCN(c2ccccc2)CC1,-28,0.6,1.6,-1,-13,-4.8,-1.2,1
CCN(CC(=O)Nc1c(C(=O)OC)[nH]c2ccccc12)c1ccc2c(c1)OCO2,2,0.6,5.4,3,26,-9.1,-3.8,5
COC(=O)c1cc2cc(OC)ccc2n1C,nt,-1.8,0.0,-2,nt,nt,4.8,-5
Cc1cc(C(F)(F)F)nn1CC(=O)N(C)C1CCCCC1,-12,-0.1,32*,0,-7,-1.0,0.4,-2
CCCCC(CC)CNC(=O)c1cc2ccccc2c(=O)o1 (stereo not given),-13,-0.9,0.8,3,-10,2.3,nt,-21
O=C(O)CCCCCCCCCCCNC(=O)NC12CC3CC(CC(C3)C1)C2,nt,-1.1,-1.5,5,nt,nt,-0.6,1

Going on with the list.
Compound,T cruzi inh,A1 inh,UCH37 inh,Beta apoptosis,Calb FLC,RanGTP-Imp inh,LANA-H2B inh,Beta2AR agonist
COc1ccc(OCC(=O)N2CCN(c3cccc(Cl)c3)CC2)cc1,4,0.6,2.6,-1,1,-0.6,0.7,1
CN(C)CCCN(C(=O)c1sc2ccccc2c1Cl)c1nc2c(F)cccc2s1,39,0.1,6.5,0,10,?,nt,-9
CCC(CC)C(=O)Nc1cccc(C(=O)Nc2nccs2)c1,6,0.4,0.3,1,-22,0.5,-2.3,-3
CCOc1ccccc1NC(=O)c1sc2nc(C)nc(N3CCOCC3)c2c1C,11,-0.4,-368,-10,-3,5.3,1.2,2
CC(=O)N1CCN(C(=S)NC(=O)C23CC4CC(CC(C4)C2)C3)CC1,-9,-0.4,1.4,-12,-5,-0.2,-4.1,-12
O=C(Cn1c(=O)n2ncnc2c2c3c(sc21)CCCC3)c1ccccc1,17,-0.7,1.2,4,28,-0.2,1.0,-19
COc1ccc(-n2cc([N+](=O)[O-])c(=O)c3ccc(Cl)cc32)cc1,-2,0.6,2.7,-2,-7,0.2,1.8,4
Cc1cc(-c2ccccc2)nc(N(C)NC(=O)c2ccc(Cl)cc2)c1S(C)(=O)=O,8,-0.3,-3.4,0,14,6.4,-1.3,-3
Cc1ccccc1NC(=O)c1cccc(N2C(=O)C3CCCCC3C2=O)c1 (stereo not given),1,0.3,5.1,2,0,-2.2,0.8,-2
O=C(Nc1ccsc1C(=O)O)c1ccccc1Cl,-6,-1.0,2.7,-11,-4,-1.1,-5.3,-3
COc1ccc(S(=O)(=O)N2CCc3ccccc32)cc1C(=O)NC1(C)CCS(=O)(=O)C1 (stereo not given),nt,-0.1,-0.5,-7,nt,nt,4.0,3
NNC(=O)COc1ccc2oc3c(c2c1)CCCC3,-14,-0.2,2.2,-3,-9,5.8,-6.4,8
CCCCc1nc2cc(C(=O)N3CCCC(OCCC)C3)ccc2o1 (stereo not given),8,0.3,5.4,-5,-3,-2.9,-0.1,-10
C(=N\c1c(-c2ccccc2)nc2n1CCS2)/c1ccccc1,-11,0.3,nt,-7,-3,-6.3,0.1,-4
CCN(CC)S(=O)(=O)c1ccc(NS(=O)(=O)CC23CCC(CC2=O)C3(C)C)cc1 (stereo not given),16,0.1,4.9,8,?,-1.7,-2.9,41
O=S(=O)(NCC(c1cccnc1)N1CCN(Cc2ccccc2)CC1)c1ccccc1 (stereo not given),62*,-0.3,1.4,-1,-6,-0.8,-4.4,-6
CC(C)c1ccc(OCC(=O)NNC(=S)NC(=O)c2cccs2)c(Br)c1,-10,0.2,2.1,0,-2,-1.9,-2.5,-5
O=C(O)c1ccc([N+](=O)[O-])c(CS(=O)(=O)c2ccc(Cl)cc2)c1,-15,1.6,4.0,4,4,1.1,11,20
COCCNc1ccc([N+](=O)[O-])cc1C(=O)NC1CCCc2ccccc21 (stereo not given),7,0.4,1.4,6,6,-1.7,1.0,4
COc1ccc(CNC(=O)CN2C(=O)NC(C)(c3ccc(C(C)(C)C)cc3)C2=O)cc1 (stereo not given),9,-0.7,7.2,-1,0,-1.6,-13,-3
CCNC(=S)Nc1ccc(Cl)cc1,-3,0.2,-0.6,-3,-6,-1.3,6.2,-2
O=C(NCc1ccccc1)c1ccc2nnsc2c1,-12,-0.2,3.4,4,-4,?,-1.1,-9
COc1ccc(-n2cc(C#N)c(=O)n(Cc3ccc(F)cc3)c2=O)cc1,1,0.1,4.5,-2,34,1.0,-8.5,-15
COc1cccc(C2CC(c3ccc(C)cc3)Nc3nc(N)nn32)c1 (stereo not given),12,0.0,1.6,15,4,-5.3,-5.8,-1
